GLA inh pH 4.5: blocks human alpha-galactosidase A at pH 4.5; P06280; purified enzyme, 4-MU-alpha-Gal fluorescence, pH 4.5; activity change, negative = inhibition, % at 105 µM; 230,000 tested, under 10 active; inconclusive = small, poorly fitted or top-dose-only inhibition, or a rising curve; inactive = flat fitted curve, though single readings scatter; no compound was filed as active;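 also: 0% = full activity with enzyme and -100% = basal without enzyme; dose as in the result columns while the protocol names 77 µM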
miR-21 reporter: miR-21 reporter, rising signal; HeLa miR-21 FLuc reporter, luciferase, 48 h; Potency, µM (series often up to 38.3 µM), for inactives: at the highest dose reporter change, positive = more light; AID 2288; 340,000 tested, under 10 active; active = well fitted rising curve with a large enough effect; inconclusive = small, poorly fitted or top-dose-only effect; inactive = no such curve, though single readings can be large or run the other way;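 also: % of control where 0% means no effect; miR-21 action dims this reporter so a rising signal means less miR-21 action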
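Compounds were titrated across several concentrations (up to approximately 40 uM) and incubated 48 hours with HeLa miR-21-FLuc reporter cells (miR-21 target sequence downstream of FLuc, endogenous miR-21). Readout was firefly luciferase luminescence after lytic detection reagent.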
Rango complex inh: prevents formation of the Rango-importin beta complex; Q14974; Rango CFP/YFP FRET sensor + importin beta, 45 min; Potency, µM (highest dose often 92.2 µM), without a hit: at the highest dose inhibition of complex formation; 0.031% of 340,000 active; active = rising FRET ratio curve, often small or poorly fitted; inconclusive = mostly compound fluorescence or quenching in the first reads; inactive = flat curves in all reads;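 also: potency is read from the fitted curve at half-maximal effect; 0% = DMSO wells and 100% = buffer wells lacking importin beta; nearly all actives have a fitted effect of over 15% in size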
Target sequence (Q14974 whole entry, looked up): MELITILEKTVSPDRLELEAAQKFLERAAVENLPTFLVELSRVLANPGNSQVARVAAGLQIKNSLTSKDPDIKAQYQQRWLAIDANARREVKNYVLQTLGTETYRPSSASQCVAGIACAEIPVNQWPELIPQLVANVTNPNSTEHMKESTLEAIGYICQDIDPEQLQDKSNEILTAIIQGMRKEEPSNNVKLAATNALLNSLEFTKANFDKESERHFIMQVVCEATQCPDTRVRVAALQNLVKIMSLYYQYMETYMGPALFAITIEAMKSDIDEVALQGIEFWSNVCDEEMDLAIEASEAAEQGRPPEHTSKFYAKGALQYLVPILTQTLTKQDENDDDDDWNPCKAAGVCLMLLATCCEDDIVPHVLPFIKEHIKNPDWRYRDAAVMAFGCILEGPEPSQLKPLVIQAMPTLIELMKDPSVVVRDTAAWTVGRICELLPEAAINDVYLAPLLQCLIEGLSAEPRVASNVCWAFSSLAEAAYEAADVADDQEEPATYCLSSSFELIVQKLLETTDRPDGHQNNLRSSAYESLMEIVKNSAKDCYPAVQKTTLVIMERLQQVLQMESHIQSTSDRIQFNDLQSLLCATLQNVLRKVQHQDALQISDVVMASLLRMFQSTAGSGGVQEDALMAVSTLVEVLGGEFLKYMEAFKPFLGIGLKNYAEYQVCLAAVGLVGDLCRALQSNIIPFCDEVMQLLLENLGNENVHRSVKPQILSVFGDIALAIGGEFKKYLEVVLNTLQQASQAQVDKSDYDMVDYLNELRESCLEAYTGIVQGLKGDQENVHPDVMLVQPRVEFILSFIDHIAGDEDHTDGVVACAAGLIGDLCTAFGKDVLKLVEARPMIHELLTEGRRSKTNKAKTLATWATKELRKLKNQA
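FRET biosensor (snurportin 1 IBB flanked by EYFP and cerulean), 50 nM, with compound 5 min, then 0.125 microM importin beta in PBS, 1 mM DTT, 0.02% Tween-20, 0.1% BSA. CFP/YFP ratio read after 45 min at room temperature; pre-read flags interference.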
Rango dissoc inh: prevents RanGTP from dissociating the Rango-importin beta complex. Biochemical FRET Rango-importin beta, RanGTP-induced dissociation. Potency, µM (titrated, usually from 46.1 µM), without a hit: at the highest dose activity change, negative = inhibition. 0.071% of 340,000 active. AID 540253; active means falling FRET ratio curve, often poorly fitted, with flat reads before Ran was added; inconclusive means other falling curves, or compound fluorescence or quenching; inactive means flat or rising ratio curve;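 also: potency is read from the fitted curve at half-maximal effect; % of control where 0% means no effect; nearly all actives have a fitted effect of over 45% in size; -100% = wells without RanGTP and RCC1; the record marks most hits as doubtful in a second field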
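Compounds preincubate 5 min with complex of recombinant Rango and importin beta in PBS with 1 mM DTT. Ran (0.6 uM) loaded with 2 mM GTP plus 0.2 uM RCC1 starts dissociation; FRET is recorded 45 min later.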
Starred values were filed as active, the others as inactive; & = joins results of further samples.

What do the screens show for `O=C(CC1N=C(Cc2ccccc2)NNC1=O)N/N=C/c1ccc([N+](=O)[O-])cc1` (stereo unspecified)?
GLA inh pH 4.5: 5; miR-21 reporter: 0%; Rango complex inh: 0.4%; Rango dissoc inh: 1%

How did COC(=O)c1ccc(COC(=O)CCC(=O)c2cccs2)cc1 do in these assays?
GLA inh pH 4.5: -3; miR-21 reporter: -42%; Rango complex inh: -1.1%; Rango dissoc inh: 19%

How did COc1cccc(OC)c1C(=O)NC(=S)NCc1cccnc1 do in these assays?
miR-21 reporter: 4%; Rango complex inh: 0.4%; Rango dissoc inh: -4%

Results for CC(C)(CNC(=O)/C=C/c1ccc(F)cc1)CNC(=O)/C=C/c1ccc(F)cc1 ?
GLA inh pH 4.5: 0; miR-21 reporter: -31%; Rango complex inh: -2.1%; Rango dissoc inh: 17%

What do the screens show for `S=c1[nH]nc(-c2ccccc2Br)n1Cc1ccccc1`?
miR-21 reporter: -2%; Rango complex inh: 3.5%; Rango dissoc inh: 2%

How did O=C(NNC(=S)NCC1CCCO1)c1cc(Br)ccc1Cl (stereo unspecified) do in these assays?
miR-21 reporter: -4%; Rango complex inh: -0.2%; Rango dissoc inh: inconclusive

What do the screens show for `Cc1cc(C(=O)N/N=C/c2ccc(OC(=O)c3ccccc3Br)cc2)n[nH]1`?
GLA inh pH 4.5: 5; miR-21 reporter: -9%; Rango complex inh: 3.1%; Rango dissoc inh: -10%

How did COc1ccc(CC(=O)n2[nH]c(=O)ccc2=O)cc1OC do in these assays?
GLA inh pH 4.5: 9; miR-21 reporter: -3%; Rango complex inh: -7.0%; Rango dissoc inh: -11%

Results for C/C(=N/NS(=O)(=O)c1ccc(C)cc1)c1ccc2c(c1)OCO2 ?
miR-21 reporter: -7%; Rango complex inh: -0.3%; Rango dissoc inh: -11%

How did O=C(NCC1CCCO1)c1ccc2c(c1)N(Cc1ccc(F)cc1)CCS2 (stereo unspecified) do in these assays?
miR-21 reporter: 2%; Rango complex inh: -1.0%; Rango dissoc inh: 18%

How did O=C(NCCN1C(=O)C2C3C=CC(C3)C2C1=O)Nc1ccccc1 (stereo unspecified) do in these assays?
GLA inh pH 4.5: -2; miR-21 reporter: -12%; Rango complex inh: -0.6%; Rango dissoc inh: -7%

Results for CCCSc1nc2ccccc2n1CC(=O)O ?
GLA inh pH 4.5: 5; miR-21 reporter: 0%; Rango complex inh: -0.3%; Rango dissoc inh: 0%

Results for CN1CCN(S(=O)(=O)c2cccc(C(=O)Nc3sccc3C(N)=O)c2)CC1 ?
Rango complex inh: -1.0%; Rango dissoc inh: -4%

Results for O=C1c2ccccc2C(=O)N1CC1c2ccccc2CCN1C(=O)N1CCOCC1 (stereo unspecified) ?
GLA inh pH 4.5: -24; miR-21 reporter: -3%; Rango complex inh: inconclusive; Rango dissoc inh: -8%

Results for CC1CCCCN1CC(=O)NC(c1ccccc1)c1ccccc1 (stereo unspecified) ?
GLA inh pH 4.5: -12; miR-21 reporter: 2%; Rango complex inh: inconclusive; Rango dissoc inh: 5%

How did CC(=O)OC(C(=O)N1CCOCC1)c1c(F)cccc1F (stereo unspecified) do in these assays?
GLA inh pH 4.5: 1; miR-21 reporter: -6%; Rango complex inh: -1.1%; Rango dissoc inh: 15%

Results for Cc1ccc(C(=O)NNC(=O)C(C)Sc2nc(N)cc(N)n2)cc1 (stereo unspecified) ?
GLA inh pH 4.5: -1; miR-21 reporter: 4%; Rango complex inh: 2.1%; Rango dissoc inh: 11%

How did O=C(CCc1ccccc1)Nc1nc2nc(-c3ccccc3)cc(=O)n2[nH]1 do in these assays?
GLA inh pH 4.5: 4; miR-21 reporter: -3%; Rango complex inh: 1.2%; Rango dissoc inh: -1%

Results for CCCc1cc(=O)[nH]c(SCC(=O)N(CC)c2c(N)n(Cc3ccccc3)c(=O)[nH]c2=O)n1 ?
Rango complex inh: -2.8%; Rango dissoc inh: -5%

What do the screens show for `CCNS(=O)(=O)c1ccc2nc(NC(=O)/C=C/c3cc(OC)c(OC)c(OC)c3)sc2c1`?
GLA inh pH 4.5: 2; miR-21 reporter: 2%; Rango complex inh: 0.2%; Rango dissoc inh: 6%

Looked up one by one from the list above, six records:
Results for CCCc1cc(=O)[nH]c(SCC(=O)N(CC)c2c(N)n(Cc3ccccc3)c(=O)[nH]c2=O)n1 ?
Rango complex inh: -2.8%; Rango dissoc inh: -5%

How did COc1cccc(OC)c1C(=O)NC(=S)NCc1cccnc1 do in these assays?
miR-21 reporter: 4%; Rango complex inh: 0.4%; Rango dissoc inh: -4%

Results for O=C1c2ccccc2C(=O)N1CC1c2ccccc2CCN1C(=O)N1CCOCC1 (stereo unspecified) ?
GLA inh pH 4.5: -24; miR-21 reporter: -3%; Rango complex inh: inconclusive; Rango dissoc inh: -8%

How did COc1ccc(CC(=O)n2[nH]c(=O)ccc2=O)cc1OC do in these assays?
GLA inh pH 4.5: 9; miR-21 reporter: -3%; Rango complex inh: -7.0%; Rango dissoc inh: -11%

How did O=C(NCCN1C(=O)C2C3C=CC(C3)C2C1=O)Nc1ccccc1 (stereo unspecified) do in these assays?
GLA inh pH 4.5: -2; miR-21 reporter: -12%; Rango complex inh: -0.6%; Rango dissoc inh: -7%

How did O=C(NCC1CCCO1)c1ccc2c(c1)N(Cc1ccc(F)cc1)CCS2 (stereo unspecified) do in these assays?
miR-21 reporter: 2%; Rango complex inh: -1.0%; Rango dissoc inh: 18%

Additional structures.
How did COc1ccccc1N1CCN(C(=O)c2sc3nc(-c4ccccc4)cn3c2C)CC1 do in these assays?
GLA inh pH 4.5: -6; miR-21 reporter: 21%; Rango complex inh: -2.0%; Rango dissoc inh: -1%

How did Nn1c(C2CCCCC2)nc2ccccc2c1=O do in these assays?
GLA inh pH 4.5: 6; miR-21 reporter: -10%; Rango complex inh: 9.6%; Rango dissoc inh: 24%

How did COc1ccccc1C(C)NC(=O)c1ccc(NC(=O)CC2SC(N3CCCC3)=NC2=O)cc1 (stereo unspecified) do in these assays?
Rango complex inh: 3.8%; Rango dissoc inh: 2%

How did COc1ccc(C2=NNC(c3cccnc3)=Nc3ccc(OC)cc32)cc1 do in these assays?
GLA inh pH 4.5: -3; miR-21 reporter: -4%; Rango complex inh: 4.8%; Rango dissoc inh: -2%

How did COCc1cc(C)nc2sc(C(=O)Nc3nccs3)c(N)c12 do in these assays?
GLA inh pH 4.5: 3; miR-21 reporter: -69%; Rango complex inh: inconclusive; Rango dissoc inh: inconclusive

What do the screens show for `Cc1ccc(CNC(=S)Nc2cc(C(=O)O)ccc2C)cc1`?
GLA inh pH 4.5: -3; miR-21 reporter: -2%; Rango complex inh: -0.2%; Rango dissoc inh: -6%

How did CCn1c(O)c(N=Nc2ccc(Cl)c(C(=O)O)c2)c2ccccc21 do in these assays?
GLA inh pH 4.5: -3; miR-21 reporter: -25%; Rango complex inh: inconclusive; Rango dissoc inh: inconclusive

Results for COc1cccc(C(=O)Oc2ccc(/C=N/Nc3ccc(C(=O)O)cc3)cc2OC)c1 ?
miR-21 reporter: -18%; Rango complex inh: 1.1%; Rango dissoc inh: 9%

How did CC(C)CC(=O)NC(=S)NNC(=O)c1ccc([N+](=O)[O-])cc1 do in these assays?
GLA inh pH 4.5: -1; miR-21 reporter: 0%; Rango complex inh: 1.3%; Rango dissoc inh: 4%

Results for CSc1nnc(C)c(=O)n1COC(=O)c1ccc(S(=O)(=O)N2CCCC2)cc1 ?
GLA inh pH 4.5: 9; miR-21 reporter: 8%; Rango complex inh: -1.6%; Rango dissoc inh: -16%

How did c1ccc(-c2ccc(CN3CCN(c4ncccn4)CC3)cc2)cc1 do in these assays?
GLA inh pH 4.5: 3; miR-21 reporter: -7%; Rango complex inh: inconclusive; Rango dissoc inh: 5%

Results for COc1ccc(-c2csc(NC3CCCCC3)n2)c(OC)c1 ?
miR-21 reporter: -39%; Rango complex inh: 1.2%; Rango dissoc inh: -9%

What do the screens show for `CC[C@@H](C)[C@@H]1CN([C@@H](CN2CCC[C@H]2CN2C(N)=NC[C@@H]2Cc2ccccc2)C(C)C)C(=N)N1CCCC1CCCC1`?
Rango complex inh: -0.9%; Rango dissoc inh: -2%

Results for O=C(Nc1ccc(F)cc1F)c1cc2ncc(Br)cn2n1 ?
GLA inh pH 4.5: -3; miR-21 reporter: -21%

Results for CCN(CC)CCCNC(=O)C(C)n1c2ccccc2c2nc(=O)cc(C)n21 (stereo unspecified) ?
GLA inh pH 4.5: -1; miR-21 reporter: -3%; Rango complex inh: -0.6%; Rango dissoc inh: 6%

What do the screens show for `CC1=NN(C(N)=S)C(=O)C1N=Nc1ccccc1C(=O)O` (stereo unspecified)?
miR-21 reporter: -1%; Rango complex inh: -0.8%; Rango dissoc inh: -8%

Results for CC(C)CNC(=O)COC(=O)/C=C/c1ccco1 ?
GLA inh pH 4.5: -3; miR-21 reporter: 0%; Rango complex inh: 0.1%; Rango dissoc inh: -4%

Results for O=S(=O)(N/N=C\C=C\c1ccccc1)c1ccc(Br)cc1 ?
GLA inh pH 4.5: 2; miR-21 reporter: -1%; Rango complex inh: 0.8%; Rango dissoc inh: -12%

What do the screens show for `O=C(Nc1nnc(-c2ccco2)o1)c1ccc2ccccc2c1`?
GLA inh pH 4.5: -1; miR-21 reporter: -10%; Rango complex inh: 4.8%; Rango dissoc inh: -6%

What do the screens show for `Cc1cc(C(=O)OCC(=O)N2CCOCC2)ccc1[N+](=O)[O-]`?
GLA inh pH 4.5: 11; miR-21 reporter: 0%; Rango complex inh: 1.5%; Rango dissoc inh: -10%

How did COC(=O)c1c(NC(=O)CSc2ncnc3[nH]ncc23)sc2c1CCC2 do in these assays?
GLA inh pH 4.5: 10; miR-21 reporter: 0%; Rango complex inh: -5.1%; Rango dissoc inh: 15%

How did O=C(Nc1ccc(F)cc1)c1nc(S(=O)(=O)Cc2ccccc2)ncc1Cl do in these assays?
miR-21 reporter: inconclusive; Rango complex inh: 4.0%; Rango dissoc inh: 12%

How did CC(=O)Nc1ccc(NC(=O)C(C)OC(=O)CSCc2cccc(Cl)c2)cc1 (stereo unspecified) do in these assays?
Rango complex inh: 1.0%; Rango dissoc inh: -8%

How did CC(=O)Nc1c(Cl)cc(Cl)c2c1Cc1cc(Cl)ccc1-2 do in these assays?
Rango complex inh: 5.8%; Rango dissoc inh: 1%

How did O=C(C1CCCCC1)N1CCc2[nH]c3ccc(F)cc3c2C1 do in these assays?
GLA inh pH 4.5: 3; miR-21 reporter: 1%; Rango complex inh: inconclusive; Rango dissoc inh: -4%

How did COCCCn1c(-c2ccccc2)nc2ccccc2c1=O do in these assays?
GLA inh pH 4.5: 4; miR-21 reporter: -12%; Rango complex inh: 0.1%; Rango dissoc inh: 8%

How did Nc1c(N2CCCC2)c2ccccc2oc1=O do in these assays?
GLA inh pH 4.5: 6; miR-21 reporter: 0%; Rango complex inh: 3.0%; Rango dissoc inh: 1%

What do the screens show for `C[C@H](CO)NC(=O)[C@H](C)[C@H]1C[C@]1(C)[C@H](NC(=O)OCc1ccccc1)c1ccccc1`?
GLA inh pH 4.5: 4&-6; miR-21 reporter: 1%; Rango complex inh: -4.0%; Rango dissoc inh: -12%

What do the screens show for `CC(C)n1c(CN(C)c2ccccc2)nc2ccccc21`?
miR-21 reporter: 8%; Rango complex inh: -0.7%; Rango dissoc inh: inconclusive

What do the screens show for `COc1ccc(OCc2cc(C(=O)NC(C)Cc3cnccn3)no2)c(Cl)c1` (stereo unspecified)?
miR-21 reporter: -37%; Rango complex inh: -1.0%; Rango dissoc inh: -5%

Results for CCCN(CC(=O)Nc1ccccc1C)C(=O)CCNC(=O)c1ccccc1Cl ?
Rango complex inh: -0.2%; Rango dissoc inh: 1%

How did CCCCCCc1c(C)c2ccc(OCC(=O)N3CCC[C@H]3C(=O)O)c(C)c2oc1=O do in these assays?
miR-21 reporter: -5%; Rango complex inh: 1.2%; Rango dissoc inh: 1%

How did CC(C)C1N=C2c3ccccc3N=C(SCC#N)N2C1=O (stereo unspecified) do in these assays?
GLA inh pH 4.5: 7; miR-21 reporter: -4%; Rango complex inh: -4.2%; Rango dissoc inh: 5%

High-throughput results as filed in PubChem BioAssay.

Some of the compounds tested; rates above refer to the full screens.
